# Mtb betalactam: beta-lactam sensitization of Mtb H37Rv. AID 434955. inhibition, % at 25 µM. hit rate 0.27% among 330,000. M. tuberculosis H37Rv growth with meropenem, percent inhibition; hits of this screen are not shown here;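 active = about 74% or more and at least 40 points above the plate without the antibiotic, then above 30% in a dose series; inconclusive = first-round hits that could not be retested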;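 also: growth measured after seven days incubation then overnight dye step; 0% = bacteria only wells and 100% = bacteria with antibiotic; twin plates without the antibiotic show which effects depend on it; some results filed as inactive read as strong as hits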
# YopH PTP inh: blocks Yersinia enterocolitica YopH tyrosine phosphatase; fluorescence Ex485/Em525; inhibition, %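 (about 10 µM by stock and volumes)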; hit rate 0.16% among 140,000; AID 898;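 active = inhibition of 50% or more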;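 also: controls were vehicle for no effect and minimum signal wells for full effect; inactives centre near -20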
# RecA splice inh: Mtb RecA intein splicing inhibition; P9WHJ3; inhibition, %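 (about 9 µM by stock and volumes)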; hit rate 0.75% among 290,000; cell-free RecA intein splicing, fluorescence; in the data active = inhibition above about 30%; inconclusive = no clear call, values can overlap the other calls;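 also: 0% = vehicle wells and 100% = reference inhibitor control wells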
# Target sequence (P9WHJ3 whole entry, looked up, canonical isoform): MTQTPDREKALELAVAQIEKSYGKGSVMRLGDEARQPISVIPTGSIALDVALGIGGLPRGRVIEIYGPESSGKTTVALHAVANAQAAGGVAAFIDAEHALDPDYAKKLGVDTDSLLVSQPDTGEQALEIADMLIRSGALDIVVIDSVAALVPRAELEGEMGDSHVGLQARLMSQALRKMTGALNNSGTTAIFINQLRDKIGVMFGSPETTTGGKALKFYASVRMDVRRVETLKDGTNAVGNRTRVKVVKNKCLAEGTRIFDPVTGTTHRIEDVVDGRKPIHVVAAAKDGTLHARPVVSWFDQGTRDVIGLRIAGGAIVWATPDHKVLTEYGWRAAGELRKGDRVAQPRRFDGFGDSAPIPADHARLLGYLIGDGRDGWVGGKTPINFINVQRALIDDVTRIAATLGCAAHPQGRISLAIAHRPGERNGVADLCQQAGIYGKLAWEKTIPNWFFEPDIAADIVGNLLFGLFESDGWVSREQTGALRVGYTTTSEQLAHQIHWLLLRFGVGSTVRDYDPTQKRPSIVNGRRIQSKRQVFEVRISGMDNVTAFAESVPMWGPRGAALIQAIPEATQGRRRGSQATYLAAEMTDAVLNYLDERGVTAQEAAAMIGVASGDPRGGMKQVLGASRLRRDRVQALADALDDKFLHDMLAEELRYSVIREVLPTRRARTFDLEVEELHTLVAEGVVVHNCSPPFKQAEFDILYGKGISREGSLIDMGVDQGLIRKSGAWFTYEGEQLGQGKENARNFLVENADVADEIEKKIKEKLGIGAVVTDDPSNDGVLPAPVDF
# Mtb growth: M. tuberculosis H37Rv growth inhibitors, H37Rv strain (AID 1626) | M. tuberculosis H37Rv growth inhibition; higher % means a stronger effect | inhibition, % at 10 µM; hits with a dose series show IC50 in µM | hit rate 0.95% among 220,000;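 active = confirmed in a dose series; inconclusive = inhibition above 80% but not taken into the dose series; inactive = below 80% or under 30% at every dose of the series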;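 also: bacteria incubated seven days before Alamar blue readout; 0% = bacteria only wells and 100% = bacteria with antibiotic wells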
# Arbovirus inh: antivirals against arbovirus infection; AID 1251; hit rate 0.37% among 200,000; inhibition, % at 10 µM; arbovirus infection cell-based antiviral screen;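 active = inhibition from about 30%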;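 also: bluetongue infection of BSR cells; cell survival read as ATP light after 72 h; 0% = infected wells without compound and 100% = uninfected wells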
# Arbovirus inh repeat: further read-out of Arbovirus inh, marked with its call; inhibition, %; measured here: 10K subset replicate screen; many hits read low in the repeat;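 first of two repeat runs on a subset; 0% = infected and 100% = uninfected wells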
# Active calls of the source: *; ? = inconclusive; nt = not tested or not shown.
SMILES,Mtb betalactam,YopH PTP inh,RecA splice inh,Mtb growth,Arbovirus inh,others
O=C(NC(=S)NCC1CCCO1)c1ccccc1[N+](=O)[O-] (stereo unspecified),-8,nt,-0.1,-7%,5,
Cc1ccccc1C1=N/C(=C/c2cccs2)C(=O)O1,82,nt,-4.4,-3%,-3,
Cc1onc(-c2c(Cl)cccc2Cl)c1C(=O)O/N=C(\C#N)c1ccccc1,15,nt,9.2,-10%,nt,
Fc1ccc(NCc2n[nH]c(=S)n2Cc2ccccc2)cc1,-7,nt,-0.6,3%,6,
O=C(O)CCC(=O)Nc1cccc(-c2nnc(-c3ccccc3)o2)c1,-1,nt,-1.8,nt,nt,
CS(=O)(=O)N1N=C(c2ccccc2)CC1c1cccs1 (stereo unspecified),-13,-14,3.3,-1%,4,
O=C(CCn1c(=O)c2ccccc2n(Cc2cccc([N+](=O)[O-])c2)c1=O)N1CCc2ccccc2C1,-2,-23,4.4,-8%,3,
Cc1nn(-c2ccccc2)nc1CNC(=O)c1ncoc1-c1ccccc1,-7,nt,0.3,3%,nt,
CC12CCC(C(=O)Nc3nc4ccc(Br)cc4s3)(OC1=O)C2(C)C (stereo unspecified),7,nt,0.3,7%,-5,
COc1ccc(OC)c(N=c2ssnc2Cl)c1,95,-24,11,4%,2,
c1nc(NCC2(N3CCOCC3)CCCCC2)c2ccsc2n1,1,-4,0.3,-2%,-4,Arbovirus inh repeat=3
O=C(COc1ccccc1)Nc1cc(NC(=O)COc2ccccc2)cc(C(=O)O)c1,9,nt,-1.1,nt,nt,
CCNC(=O)NS(=O)(=O)c1cnccc1Nc1cccc(Cl)c1,4,-8,-2.2,7%,2,
CC(C)(C)C1CCC2(CC1)SCC(=O)N2c1ccccc1 (stereo unspecified),4,-34,-2.5,3%,3,
COc1ccc(C(=O)Nc2ccccc2C(=O)Nc2ccc(C(=O)O)cc2)cc1,7,nt,-1.1,nt,nt,
O=Nc1c2cc(-c3ccccc3)[nH]nc-2c2ccccc12,nt,nt,1.1,4%,-11,
O=C(CC1SC(=Nc2ccc(OC(F)F)cc2)N(CCN2CCOCC2)C1=O)Nc1ccccc1 (stereo unspecified),0,nt,4.0,nt,nt,
CN(/N=C/c1cccnc1)c1cnn(-c2ccc(F)c(Cl)c2)c(=O)c1Cl,2,-18,-4.1,-1%,3,
COC(=O)c1ccc(/C=N/Nc2nc3ccccc3[nH]2)cc1,2,nt,-2.1,?,-13,
CSc1ccc(CN2CCC(n3nccc3NC(=O)C3CCOC3)CC2)cc1 (stereo unspecified),-5,nt,0.4,nt,nt,
CCOC(=O)c1c(S(=O)(=O)NCC(=O)Nc2ccc(F)cc2)c(C)n(C)c1C,-7,nt,-2.9,nt,nt,
O=C(/C=C/c1ccc(F)cc1)NC(=S)NNC(=O)c1cnccn1,-8,nt,6.4,nt,nt,
O=C1/C(=C/c2ccccn2)COc2ccccc21,99,nt,0.0,2%,-7,
COCCNS(=O)(=O)c1ccc2c(c1)n(C)c(=O)n2C,12,-30,-0.8,-4%,-12,
COc1ccc(C(=O)c2ccccc2)c2c(O)ccc(C(=O)c3ccccc3)c12,6,-4,1.4,1%,20,

# Further results follow.
SMILES,Mtb betalactam,YopH PTP inh,RecA splice inh,Mtb growth,Arbovirus inh,others
O=C(COC(=O)c1ccc(O)cc1)Nc1ccc2[nH]c(=O)[nH]c2c1,-1,nt,-0.9,nt,nt,
Cc1ccccc1NS(=O)(=O)c1cc(C(=O)Nc2cccc([N+](=O)[O-])c2)ccc1C,1,-22,-0.3,16%,-16,
O=C(NCc1ccco1)c1ccc(Br)s1,21,-24,-2.5,8%,1,
Nn1c(SCC(=O)Nc2ccc(F)cc2)nnc1C1CCCCC1,6,-19,-0.2,5%,1,
N#CCC(=O)Nc1sc2c(c1C(N)=O)CCCC2,0,nt,4.0,-2%,-9,Arbovirus inh repeat=-1
Cc1ccc(Nc2nc(OC(C(F)(F)F)C(F)(F)F)nc(N3CCOCC3)n2)cc1,0,-36,1.5,5%,5,
CCCN1CCc2cc(O)cc3c2[C@H]1Cc1ccc(O)c(O)c1-3,9,nt,-3.9,-10%,nt,
Cc1cccc(NC(=S)NCCN2CCOCC2)c1C,-7,-23,-0.6,-2%,2,
O=C(NCc1cccc(Cl)c1)c1ccc2c(c1)OCO2,22,-13,0.3,11%,-12,
COc1ccccc1CNC(=O)c1ccc(OCc2c(C)noc2C)c(OC)c1,-2,-4,-2.4,5%,-14,
O=C(N/N=C(\Cc1ncc[nH]1)c1ccccc1)c1ccccc1,82,nt,4.3,36%,-30,
COc1cccc(CNC(=O)C2CCC(CNc3c(N4CCC(C)CC4)c(=O)c3=O)CC2)c1 (stereo unspecified),-4,nt,-0.3,0%,nt,
CC(=O)NS(=O)(=O)c1ccc(NC(=O)c2ccccc2F)cc1,-7,-3,0.5,-6%,4,
CCOc1cc(C(=S)N2CCOCC2)ccc1OC,3,12,0.1,-4%,0,
COc1cccc(Oc2nc3ncn(Cc4ccccc4)c3c(=O)n2C)c1,-4,-49,-1.4,3%,-6,
O=C(N1CCCC1)n1c(Cc2ccccc2)nc2ccccc21,-3,23,0.1,0%,-5,
N#Cc1nnn(-c2cc(Cl)cc(Cl)c2)c1N,-7,nt,2.5,-7%,nt,
Cc1cccc(C)c1NC(=O)c1c(O)c2ccccc2[nH]c1=O,2,nt,-0.4,nt,nt,
Cc1[nH]n(-c2ccc(Cl)cc2)c(=O)c1/C=N/n1c(C)nc2ccccc2c1=O,86,-51,3.1,34%,-28,
COC(=O)c1c(C)cc(OC(C)=O)c(C)c1OC(C)=O,5,-1,-1.6,3%,-4,
COc1ccc(NC(=S)NNC(=O)c2ccco2)c(OC)c1,-8,nt,-3.5,nt,nt,
CC(C)C(=O)NC(=S)Nc1ccc(S(=O)(=O)N(C)Cc2ccccc2)cc1,-2,-16,-1.0,4%,-22,
CCc1nc(N2CCCC(C)C2)c2oc3ccccc3c2n1 (stereo unspecified),96,-23,14,17µM*,-42,
O=C(Nc1n[nH]c(=S)s1)c1ccco1,-5,nt,-0.7,nt,nt,
CC(C)CC(NS(=O)(=O)c1ccc2c(c1)oc(=O)n2C)C(=O)NC1CCCc2ccccc21 (stereo unspecified),1,7,1.2,nt,12,Arbovirus inh repeat=-4

# Later entries:
SMILES,Mtb betalactam,YopH PTP inh,RecA splice inh,Mtb growth,Arbovirus inh,others
COc1ccc2[nH]c(=O)c(CN(Cc3cccs3)Cc3nnnn3C(C)(C)C)cc2c1,9,4,7.7,1%,-14,
O=C(COc1ccc([N+](=O)[O-])cc1)Nc1cccnc1,-6,nt,0.9,4%,0,
Cc1cccc(C)c1NC(=O)CCS(=O)(=O)c1ccc(Br)cc1,-6,nt,1.7,nt,nt,
COc1ccc(OCC(O)CNCCNc2nccc(C(F)(F)F)n2)cc1 (stereo unspecified),-3,nt,0.5,-10%,nt,
N#Cc1c(C(F)(F)F)cc(-c2cccs2)nc1SCc1cccnc1,6,-27,-8.0,-1%,-27,
CC(C)Cc1nnc(NC(=O)c2ccc3c(c2)NC(=O)C(C)S3)s1 (stereo unspecified),-1,nt,-0.7,nt,nt,
COCCNC(=O)/C(C#N)=C/c1cccs1,-3,nt,-0.6,-5%,nt,
NS(=O)(=O)c1ccc(N/N=C/c2ccc(O)cc2O)c([N+](=O)[O-])c1,-2,nt,0.1,-5%,nt,
CSc1ncccc1C(=O)NCC(c1cccs1)N1CCOCC1 (stereo unspecified),-5,nt,-2.1,nt,nt,
Cc1cccc(C)c1NC(=O)C(NC=O)c1ccccc1Cl (stereo unspecified),1,-14,-3.1,0%,-3,
CCN(CC(=O)N1CCC(C)CC1)S(=O)(=O)c1ccc(C)cc1,4,nt,-4.2,nt,nt,
CS(=O)(=O)N1CCN(C(=O)Cc2cccs2)CC1,-10,9,-0.1,0%,5,
CCc1ccc(-c2nnn(CCC(=O)OC)n2)cc1,99,-37,-4.5,53%,0,
O=c1c2ccccc2nnn1Cc1ccc(F)cc1,-2,nt,0.3,2%,-4,
COC(=O)c1cc(COc2ccc3oc(C)c(C(=O)OC)c3c2)c(C)o1,99,-14,nt,9%,-5,Arbovirus inh repeat=-2
CCOC(=O)C1CCCN(Cc2cn[nH]c2-c2ccc(F)cc2F)C1 (stereo unspecified),3,nt,-4.1,-6%,-2,
O=C(NCc1ccccc1)c1ccc(CS(=O)(=O)c2ccccc2)o1,-8,-19,-1.8,2%,15,
Cc1ccc(-n2nc3c(=O)n(CC(=O)NCCc4ccc(Cl)cc4)nc(C)c3c2C)cc1,-6,nt,4.9,nt,nt,
c1ccc(-c2nn3c(C4CCCCC4)nnc3s2)cc1,44,-20,1.6,5%,-10,
O=c1c(F)cn(C2CCCO2)c(=O)n1Cc1ccccc1Cl (stereo unspecified),-7,-22,2.5,-11%,8,
NS(=O)(=O)c1ccc(NC(=O)CN2CCCc3ccccc32)cc1,8,nt,-10,1%,nt,
Cc1ccc(-c2nc(CS(=O)CC(=O)NCCN3CCCC3)c(C)o2)cc1 (stereo unspecified),-5,nt,0.9,-3%,10,Arbovirus inh repeat=7
CC(=O)Cc1nsc(NC(=O)c2ccc(COc3cccc(C)c3)o2)n1,2,nt,2.5,nt,nt,
Cc1ccc(NC(=O)c2noc3c2CC(C(C)(C)C)CC3)cc1 (stereo unspecified),-7,-22,-1.1,-5%,-4,
O=C(N/N=C/c1ccncc1)c1nc2ccccc2c(=O)[nH]1,2,nt,-5.5,3%,nt,

# Going on with the list.
SMILES,Mtb betalactam,YopH PTP inh,RecA splice inh,Mtb growth,Arbovirus inh,others
CCN(CC)C(=O)Cn1cc(C(=O)C(=O)N2CCc3ccccc32)c2ccccc21,6,nt,-2.2,7%,8,
COc1ccc(CCNc2ncnc3c2c(C)c(C)n3CCCN(C)C)cc1OC,5,nt,-1.8,nt,nt,
Cc1cc(NC(=O)CC2CCCC2)n(-c2nc3ccccc3[nH]2)n1,95,-37,2.8,?,-15,
COc1ccc(NC(=O)c2c(NC(=O)CNCC(C)C)sc3c2CCC3)c(OC)c1,4,nt,2.9,9%,-7,
O=C(Nc1ccccc1N1CCCC1)C1CCN(S(=O)(=O)c2cccc(C(F)(F)F)c2)CC1,-3,nt,2.8,nt,nt,
CCOC(=O)c1ccc(N2CCN(c3ccccc3F)CC2)c(NC(=O)Nc2ccccc2)c1,6,-21,4.6,28%,31*,
CCN1CCN(S(=O)(=O)c2cc3c(cc2Cl)NC(=O)CO3)CC1,2,nt,-2.5,nt,nt,
CCOC(=O)c1ccccc1NC(=O)CSc1nnc(COc2ccccc2)n1CC,8,-3,5.5,1%,23,
c1ccc(C2CC(c3cccs3)n3nnnc3N2)cc1 (stereo unspecified),-4,-40,nt,-3%,6,
COc1ccccc1OCC(=O)Nc1ccc(NC(=O)COc2ccccc2OC)cc1,4,nt,1.5,nt,nt,
CN=C1S/C(=C\c2ccc(N3CCCC3)c(F)c2)C(=O)N1C,47,nt,-14,16%,-6,
Cn1cnnc1SCc1nc(N)nc(Nc2ccccc2)n1,-6,-51,-4.4,-5%,-2,

# Entries shown so far containing an aryl methoxy group, in the order listed:
SMILES,Mtb betalactam,YopH PTP inh,RecA splice inh,Mtb growth,Arbovirus inh,others
COc1ccc(OC)c(N=c2ssnc2Cl)c1,95,-24,11,4%,2,
COc1ccc(C(=O)Nc2ccccc2C(=O)Nc2ccc(C(=O)O)cc2)cc1,7,nt,-1.1,nt,nt,
COc1ccc(C(=O)c2ccccc2)c2c(O)ccc(C(=O)c3ccccc3)c12,6,-4,1.4,1%,20,
COc1ccccc1CNC(=O)c1ccc(OCc2c(C)noc2C)c(OC)c1,-2,-4,-2.4,5%,-14,
COc1cccc(CNC(=O)C2CCC(CNc3c(N4CCC(C)CC4)c(=O)c3=O)CC2)c1 (stereo unspecified),-4,nt,-0.3,0%,nt,
CCOc1cc(C(=S)N2CCOCC2)ccc1OC,3,12,0.1,-4%,0,
COc1cccc(Oc2nc3ncn(Cc4ccccc4)c3c(=O)n2C)c1,-4,-49,-1.4,3%,-6,
COc1ccc(NC(=S)NNC(=O)c2ccco2)c(OC)c1,-8,nt,-3.5,nt,nt,
COc1ccc2[nH]c(=O)c(CN(Cc3cccs3)Cc3nnnn3C(C)(C)C)cc2c1,9,4,7.7,1%,-14,
COc1ccc(OCC(O)CNCCNc2nccc(C(F)(F)F)n2)cc1 (stereo unspecified),-3,nt,0.5,-10%,nt,
COc1ccc(CCNc2ncnc3c2c(C)c(C)n3CCCN(C)C)cc1OC,5,nt,-1.8,nt,nt,
COc1ccc(NC(=O)c2c(NC(=O)CNCC(C)C)sc3c2CCC3)c(OC)c1,4,nt,2.9,9%,-7,
COc1ccccc1OCC(=O)Nc1ccc(NC(=O)COc2ccccc2OC)cc1,4,nt,1.5,nt,nt,

# A section of the results above:
SMILES,Mtb betalactam,YopH PTP inh,RecA splice inh,Mtb growth,Arbovirus inh,others
CCN(CC)C(=O)Cn1cc(C(=O)C(=O)N2CCc3ccccc32)c2ccccc21,6,nt,-2.2,7%,8,
COc1ccc(CCNc2ncnc3c2c(C)c(C)n3CCCN(C)C)cc1OC,5,nt,-1.8,nt,nt,

# The list is partial. The share of hits here may be higher or lower than overall.
